Screening data (PubChem)
2A StopGo: High Throughput Screening for Foot and Mouth Disease Virus Antivirals | human cells with a luciferase reporter of 2A StopGo recoding; control for the full effect not named in the record | Potency, µM (series often up to 57.9 µM), without a hit: at the highest dose signal change, negative = less light | 410,000 tested, 1.2% active; active = well fitted falling curve with a large enough effect; inconclusive = small, poorly fitted or top-dose-only effect; inactive = no such curve, though single readings can be large or run the other way; tested in HEK293T cells; also: % is scaled to controls: 0 for no effect and ±100 for the full control effect; nearly all actives have a fitted effect of over 45% in size; luciferase light after 4 h
NS1 inh: qHTS Assay for Inhibitors of Influenza NS1 Protein Function; S. cerevisiae slowed by influenza A NS1, growth recovery by OD600; Potency, µM (series often up to 46.1 µM), inactives show top-dose activity, positive = more growth; 270,000 tested, 0.4% active; active means well fitted rising curve with a large enough effect; inconclusive means small, poorly fitted or top-dose-only effect; inactive means no such curve, though single readings can be large or run the other way; also: nearly all actives have a fitted effect of over 50% in size
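A cell-based growth assay was used: compounds that relieve NS1-induced slow growth of budding yeast raise OD600. Assay medium was yeast nitrogen base with ammonium sulphate and -URA supplement, pH 6.0, with 2% galactose.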
Cruzain inh Det: qHTS Assay for Promiscuous and Specific Inhibitors of Cruzain (with detergent); Cruzipain (Trypanosoma cruzi), P25779; purified cruzain, Z-FR-AMC fluorescence, 0.01% Triton; Potency, µM, inactives show max response, negative = inhibition, actives largely listed as inhibitors; 200,000 tested, 0.43% active; AID 1478, 2009;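 also: plate controls were neutral wells for no effect and buffer without enzyme for full effect; nearly all actives have a fitted effect of over 40% in size; top concentration of the series not given in the record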
Target sequence (P25779 123-467 limits assumed): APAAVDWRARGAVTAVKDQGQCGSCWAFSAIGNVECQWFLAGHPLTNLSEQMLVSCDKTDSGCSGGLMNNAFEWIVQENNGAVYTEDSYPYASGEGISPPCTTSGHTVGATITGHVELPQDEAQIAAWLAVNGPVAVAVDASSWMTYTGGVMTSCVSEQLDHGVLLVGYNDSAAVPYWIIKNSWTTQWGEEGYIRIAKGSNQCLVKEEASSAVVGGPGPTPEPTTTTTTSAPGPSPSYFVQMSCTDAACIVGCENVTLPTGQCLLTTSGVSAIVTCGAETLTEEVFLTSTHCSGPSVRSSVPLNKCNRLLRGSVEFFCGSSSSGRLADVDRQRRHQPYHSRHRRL
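Steps: dispense cruzain (1.5 nM final) in acetate buffer pH 5.5 with DTT and 0.01% Triton X-100; pin-transfer compounds; incubate 15 min RT; add Z-FR-AMC (2 uM final); read fluorescence every 30 s, using the 60 s intensity change.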
Marburg entry inh: qHTS for inhibitors of binding or entry into cells for Marburg Virus. AID 540276, 2011. Marburg virus pseudotyped entry inhibition, cell reporter; control for the full effect not named in the record; about a third of the inactives were read at about 46 µM. Potency, µM (top dose mostly 37.8 µM), for inactives: at the highest dose activity change, negative = inhibition, most hits filed as inhibitors. 300,000 tested, 1.8% active; active = well fitted inhibition curve with a large enough effect; inconclusive = small, poorly fitted or top-dose-only effect, or effect the other way; inactive = flat fitted curve, though single readings scatter; tested in HEK293 cells; about a fifth of its hits are not listed in these tables; also: % is scaled to controls: 0 for no effect and ±100 for the full control effect; luciferase read-out
SARS PLpro yeast: qHTS of Yeast-based Assay for SARS-CoV PLP. S. cerevisiae expressing SARS-CoV PLpro, growth rescue; control for the full effect not named in the record. Potency, µM (series often up to 32.9 µM), without a hit: top-dose activity, positive = growth rescue. 330,000 tested, 0.19% active. AID 485353, 2010; active means well fitted rising curve with a large enough effect; inconclusive means small, poorly fitted or top-dose-only effect; inactive means no such curve, though single readings can be large or run the other way; also: 0% is about no effect; nearly all actives have a fitted effect of over 55% in size; growth read by luminescence after 48 h
LASV entry inh: qHTS for Inhibitors of binding or entry into cells for Lassa Virus. Lassa virus pseudotype entry inhibition, cell reporter; control for the full effect not named in the record. Potency, µM (titrated, usually from 37.9 µM), for the others: at the highest dose activity change, negative = inhibition, actives largely listed as inhibitors. 300,000 tested, 1.2% active. AID 540256, 2011; active means well fitted inhibition curve with a large enough effect; inconclusive means small, poorly fitted or top-dose-only effect, or effect the other way; inactive means flat fitted curve, though single readings scatter; tested in HEK293 cells; also: % is scaled to controls: 0 for no effect and ±100 for the full control effect; nearly all actives have a fitted effect of over 50% in size; luciferase read-out
Cruzain inh noDet: qHTS Assay for Promiscuous and Specific Inhibitors of Cruzain (without detergent). Cruzipain (Trypanosoma cruzi), P25779. purified cruzain, Z-FR-AMC fluorescence, no detergent. Potency, µM, for inactives: max response, negative = inhibition, usual class: inhibitors. 200,000 tested, 2.3% active. AID 1476, 2009;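 also: plate controls were enzyme without inhibitor for no effect and buffer without enzyme for full effect; nearly all actives have a fitted effect of over 40% in size; top concentration of the series not given in the record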
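Purified cruzain at 1.5 nM, pre-incubated 15 min with compound at room temperature in 100 mM sodium acetate pH 5.5, 5 mM DTT, 0.00005% Triton X-100. Reaction started with 2 uM Z-FR-AMC; AMC fluorescence increase over 60 s gives rate.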
RE007 growth inh: qHTS Assay for Inhibitors of the HIV-1 protein Vpr; S. pombe RE007 Vpr strain, BacTiter-Glo ATP luminescence, 24 h; control for the full effect not named in the record; Potency, µM (doses to about 92.2 µM), for the others: top-dose activity change, negative = less growth; 360,000 tested, 0.21% active; active = well fitted falling curve with a large enough effect; inconclusive = small, poorly fitted or top-dose-only effect; inactive = no such curve, though single readings can be large or run the other way;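 also: % is scaled to controls: 0 for no effect and ±100 for the full control effect; nearly all actives have a fitted effect of over 50% in size; the assay follows cell death caused by Vpr and the record does not say whether a fall means rescue or toxicity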
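Fission yeast strain RE007, carrying one chromosomally integrated HIV-1 vpr copy, was seeded at OD 0.01 in PMG+AL medium with 23 nL pinned compound. After 24 h at 30 °C and 99% humidity, viability was read by BacTiter-Glo luminescence.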
* = called active by the depositor; u = inconclusive; x = no result given; & = joins results of further samples; [ ] = another dose, or the depositor's remark. Unless noted, calls follow the shape of the dose curve; as a rule, active = well fitted curve in the direction sought with a large enough effect; inconclusive = small, poorly fitted or top-dose-only effect, or another doubt; inactive = no such curve, though single readings can be large; an effect the other way counts as inactive or inconclusive. Potency is read from the fitted curve at half-maximal effect.

SMILES | 2A StopGo | NS1 inh | Cruzain inh Det | Marburg entry inh | SARS PLpro yeast | LASV entry inh | Cruzain inh noDet | RE007 growth inh
CCCCNc1nc(Oc2ccc(=O)n(-c3ccccc3)n2)nc(N(C)C)n1 | -8% | x | -4.9% | -2%[46.1 µM] | x | 3%[46.1 µM] | 19% | x
O=C(COC(=O)[C@H](Cc1ccccc1)N1C(=O)c2ccccc2C1=O)Nc1ccc2c(c1)OCO2 | -24% | -2% | -23% | u | -8% | 12% | -26% | -6%
CCCCn1c(=O)cc(C)n(-c2ccccc2)c1=O | -5% | x | x | u | x | -1% | x | -8%
CCCCc1cc(=O)oc2cc(C)cc(OC(C)C(=O)NCC3CCC(C(=O)O)CC3)c12 (stereo not drawn) | -10% | 5% | x | x | -2% | x | x | 1%
COc1ccc(Cl)cc1NC(=O)CSc1nnc(COc2ccccc2)n1C | -23% | -72% | -2.4% | 5% | 1% | 10% | u | 10%
Cc1ccc(NS(=O)(=O)c2ccc3c(c2)n(C)c(=O)c(=O)n3C)c(C)c1 | -18% | 3% | x | x | 3% | x | x | -1%
Cc1ccc(-c2cc(-c3cccc(F)c3)n[nH]2)c(O)c1 | 60%[activator] | -86% | -13% | u | -8% | u | -13% | u
CCS(=O)(=O)Nc1ccc(C(=O)OC)cc1 | 10% | 6% | 1.9% | -3% | -1% | 8% | -18% | 13%
Cc1ccc(-n2nc(C)c(C(=O)O)n2)c(C)c1 | 8% | 6% | 1.8% | 3% | 11% | -2% | -9% | 7%
CC(C)c1ccc2[nH]c(O)c(N=NC(=O)c3cccc(S(=O)(=O)Nc4ccccc4Cl)c3)c2c1 | 3% | 6% | -0.6% | u | 15% | 2% | u | -4%
CCc1ccc(NC(=O)CN2C(=O)C(=O)c3ccccc32)cc1 | 27% | x | -4.8% | u | x | 0%[46.1 µM] | 12% | x
CCOc1ccc2nc(NCCNC(=O)C3CC3)c(C)cc2c1 | 19% | -12% | -0.2% | u | -1% | u | u | -14%
Cc1cc(C)cc(NC(=O)CCCc2nc(-c3ccco3)no2)c1 | 8% | x | -7.8% | 25%[46.1 µM] | x | 6%[46.1 µM] | 18% | x
CCCCNC(=O)/C(C#N)=C/c1ccc2c(c1)OCCO2 | 38%[activator] | -1% | 0.1% | 8% | -4% | u | 2% | -17%
COc1ccccc1OCc1nc2ccccc2n1Cc1ccccc1 | -1% | x | -4.3% | x | x | 5%[46.1 µM] | -9% | x
Cc1nn(-c2ccccc2)c2nc(N)c(C#N)c(-c3ccc(C(C)(C)C)cc3)c12 | -15% | 1% | x | x | 0% | x | x | -14%
Cc1onc(-c2ccccc2)c1C(=O)NCCc1ccc(Cl)cc1 | -28% | -11% | 2.1% | 2% | -3% | -26% | 6% | 7%
O=C(NCC12CC3CC(CC(C3)C1)C2)c1nn2cccnc2c1Cl | 8% | -14% | 4.2% | u | -11% | -1% | 22% | 14%
Cc1cc(C)c2cc3c(N)c(C(=O)Nc4c(C)[nH]c(=O)[nH]c4=O)sc3nc2c1 | -15% | 1.4µM* | -8.6% | 31% | -15% | 12% | -14% | 3%
CCOC(=O)C(CCCCP(=O)(c1ccccc1)c1ccccc1)(NC(C)=O)C(=O)OCC | -21% | 0% | x | 7% | 0% | 4% | x | 5%
CCCn1c(-c2ccc(OC)cc2)nc2c(=O)n(C)c(=O)[nH]c21 | -7% | 6% | 8.2% | -12% | 11% | -3% | 17% | 0%
FC(F)(F)c1cc(Sc2ccccc2)nc(-c2ccccn2)n1 | -6% | -170% | -1.4% | u | -1% | 22% | 4% | -13%
Oc1cccc(NC(=S)Nc2ccc(SC(F)F)cc2)c1 | -1% | -32% | -5.4% | u | -20% | 4% | -2% | -4%
CC1CCN(S(=O)(=O)c2cn(CC(=O)Nc3cccc(C(F)(F)F)c3)c(=O)c3ccccc23)CC1 | 24% | x | -5.1% | u | x | u | u | x
NS(=O)(=O)c1ccc(-c2ccc(C=O)o2)cc1 | 12% | 1% | x | 17%[46.1 µM] | 3% | -10% | x | 4%

Entries listed so far that have a furan ring, fused or not:
SMILES | 2A StopGo | NS1 inh | Cruzain inh Det | Marburg entry inh | SARS PLpro yeast | LASV entry inh | Cruzain inh noDet | RE007 growth inh
Cc1cc(C)cc(NC(=O)CCCc2nc(-c3ccco3)no2)c1 | 8% | x | -7.8% | 25%[46.1 µM] | x | 6%[46.1 µM] | 18% | x
NS(=O)(=O)c1ccc(-c2ccc(C=O)o2)cc1 | 12% | 1% | x | 17%[46.1 µM] | 3% | -10% | x | 4%

Continued:
SMILES | 2A StopGo | NS1 inh | Cruzain inh Det | Marburg entry inh | SARS PLpro yeast | LASV entry inh | Cruzain inh noDet | RE007 growth inh
Cn1c(=O)c2c(nc(-n3ccnc3)n2C)n(C)c1=O | -1% | 3% | -3.2% | 3% | -1% | -3% | -3% | 11%
COc1cccc(NS(=O)(=O)c2cc3c(cc2C)N(C(C)=O)CCO3)c1 | 73%[activator] | -4% | x | x | 10% | x | x | -2%
O=C(Nc1ccc(OCC(F)(F)C(F)F)cc1)c1ccncc1 | u | x | x | -28%[46.1 µM] | 0% | u | x | 1%
CCOc1ccc(Cl)cc1CNCCNCC(C)O (stereo not drawn) | x | 7% | 5.4% | u | 0% | -3% | -12% | -15%
O=C(Nc1cccc(Cl)c1)C1CCCN(c2ncnc3c2nc2n3CCCCC2)C1 (stereo not drawn) | u | x | -4.7% | u | x | u | u | x
O=C(Nc1ccc(S(=O)(=O)Nc2ncccn2)cc1)C1=NN(c2ccccc2)C(=O)CC1 | -19% | 11% | x | x | 1% | x | x | 1%
Cc1oc2cc3oc(=O)c(CCC(=O)NCCc4ccccc4F)c(C)c3cc2c1C | 32%[activator] | x | -1.5% | 5%[46.1 µM] | x | 27%[46.1 µM] | -12% | x
CCN(CC)C(=O)CSc1nc2ccccc2c(=O)n1CCC(=O)NCc1ccc(F)cc1 | 3% | 7% | -6.2% | -4%&-17% | 0% | -4% | 12% | 15%[3.69 µM]
CC1(C(=O)OCc2cc(=O)n3cc(Br)ccc3n2)CC1(Cl)Cl (stereo not drawn) | 34%[activator] | -4% | x | u | -10% | 4% | x | 25%
CCO[C@H]1OC(C(=O)NC2CC2)=C[C@@H](c2ccc3c(c2)OCO3)[C@@H]1CCCO | -7% | -1% | x | x | -1% | x | x | 37%
O=C(O)c1nc(-c2ccccc2)n(-c2ccc(Cl)cc2)n1 | -2% | 10% | 5.6% | u | -6% | 5% | -5% | 21%
COCCNC(=O)NC(=O)CSc1nc(C)c(C)c(C)n1 | 2% | x | x | u | 4% | 1% | x | -3%
Clc1ccc(Nc2nc(-c3ccccc3)c3ccccc3n2)c(Cl)c1 | 8% | x | 0.9% | x | x | -11%[46.1 µM] | -5% | x
CC(C)N1CCN(Cc2cccn2-c2ccccn2)CC1CCO (stereo not drawn) | -12% | -2% | x | x | 1% | x | x | -3%
CC1=C(c2ccc(F)cc2)S(=O)(=O)N=C1N1CCC(C(=O)NCCc2cccc(C)c2)CC1 | -18% | x | -2.2% | x | x | -7%[46.1 µM] | 8% | x
Clc1ccsc1-c1ccnc(-n2cccc2)n1 | 11% | -1% | x | u | -1% | 14%[46.1 µM] | x | 3%
CCn1c(CCCOc2ccc(Cl)cc2Cl)nnc1SCC(=O)Nc1cc(F)ccc1C | u | 17% | -7.3% | u | -8% | -22% | u | 9%
COCCn1c(Cc2ccccc2)nnc1SCC(=O)NC(C)C | 1% | -5% | -0.6% | -5% | 0% | 9% | -2% | -13%
CCCCN(C(=O)CSc1nnnn1C)c1c(N)n(Cc2ccccc2)c(=O)[nH]c1=O | -22% | -10% | x | 10%[46.1 µM] | 0% | -3% | x | -10%
O=C(CN1C(=O)COc2ccccc21)N1CCc2ccccc2C1 | -21% | -1% | -4.8% | u | 11% | -6% | -12% | 20%
Cc1ccc(C)c(NC(=S)N2CCC(NC(=O)c3ccccc3)CC2)c1 | 10% | -3% | x | 11%[46.1 µM] | -1% | -6% | x | 3%
O=S(=O)(c1cccc(S(=O)(=O)N2CCCC2)c1)c1cccc(S(=O)(=O)N2CCCC2)c1 | 30% | -42% | 0.9% | -25% | -1% | -26% | 7% | 14%
O=C(CCCC1=NS(=O)(=O)c2ccccc2N1)N1CCN(c2ccc([N+](=O)[O-])cc2)CC1 | 1% | 2% | x | 0%[46.1 µM] | x | -6%[46.1 µM] | x | -3%
CC(OC(=O)Cn1cnc2ccccc2c1=O)C(=O)NCc1ccccc1 (stereo not drawn) | -11% | x | x | -5%[46.1 µM] | -6% | 3% | x | -5%
CCc1ccccc1NC(=O)CCC(=O)c1cccs1 | 3% | 9% | x | -6%[46.1 µM] | -3% | 0%[46.1 µM] | x | -12%
O=C(NCc1cccc(Cl)c1)c1cnc(N2CCOCC2)c2ccccc12 | -8% | x | -5.9% | x | x | -21%[46.1 µM] | 6% | x
O=S(=O)(Nc1ccon1)c1ccc(F)c(F)c1 | -3% | 2% | x | 4%[46.1 µM] | 1% | -10%[46.1 µM] | x | 8%
O=C(O)CC(NC(=O)Cc1ccc([N+](=O)[O-])cc1)c1ccc2c(c1)OCO2 (stereo not drawn) | -6% | x | x | 15%[46.1 µM] | -1% | -20% | x | -21%
Cc1cccc(C(=O)N2CCN=C2SCc2ccc([N+](=O)[O-])cc2)c1 | -25% | x | x | u | 3% | u | x | u

Taken from above:
`CC(C)N1CCN(Cc2cccn2-c2ccccn2)CC1CCO` (stereo not drawn) @ NS1 inh = -2%
`O=C(CN1C(=O)COc2ccccc21)N1CCc2ccccc2C1` @ Cruzain inh noDet = -12%
